ClpP mod = qHTS Assay for Activators of ClpP | ATP-dependent Clp protease proteolytic subunit (Bacillus subtilis (strain 168)), P80244 | purified B. subtilis ClpP, FRET peptide cleavage, 20 min | AID 651965, 2013 | Potency, µM (highest dose often 57.5 µM), inactives show top-dose activity change, negative = active | actives 1.9% (n = 340,000); active = well fitted falling curve with a large enough effect; inconclusive = small, poorly fitted or top-dose-only effect; inactive = no such curve, though single readings can be large or run the other way; note: potency is the fitted concentration of half-maximal effect; the source files actives as falling curves though it sought activators and does not explain the sign; nearly all actives have a fitted effect of over 65% in size; many hits overshoot -100%
Target sequence (P80244 whole entry, looked up): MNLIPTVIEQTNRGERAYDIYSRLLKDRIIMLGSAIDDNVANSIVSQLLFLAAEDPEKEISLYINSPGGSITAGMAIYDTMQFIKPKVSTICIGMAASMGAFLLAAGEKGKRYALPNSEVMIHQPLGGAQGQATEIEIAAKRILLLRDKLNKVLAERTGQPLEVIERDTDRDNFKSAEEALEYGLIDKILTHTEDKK
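Buffer: 100 mM Tris/HCl pH8, 100 mM KCl, 0.05% low protease BSA, 2.5% glycerol, 0.01% Tween-20. ClpP 10 microg/mL final; 20 min RT; delta FRET normalized to ADEP and DMSO controls.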
Menin MLL FP FL = qHTS Assay for Inhibitors Targeting the Menin-MLL Interaction in MLL Related Leukemias: Competition With Fluorescein Labeled MLL-derived Peptide; Fluorescence polarization, fluorescein-MLL peptide displacement from menin; FP activity change, % at 61.4 µM; 290,000 tested, under 10 active; AID 1766, 2009; inconclusive = falling polarisation curve, or a change in total fluorescence; inactive = total fluorescence flat and polarisation flat or rising; no compound was filed as active; the % refers to the polarisation; negative = inhibition;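 note: % of control where 0% means no effect; inhibitors lower the polarisation; unlabelled MLL peptide was the positive control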
TRPML1 inh = qHTS for Inhibitors of the Human Mucolipin Transient Receptor Potential 1 (TRPML1). TRPML1-inducible cells, Ca2+ dye fluorescence, FDSS; stronger effect = lower value; inhibition of EC80 agonist-evoked calcium signal. activity change, negative = inhibition, % (concentration not given with the values). actives 0.02% (n = 390,000). AID 624415, 2012; in the data active means activity change below about -50%; inconclusive means about -30% to -50%; inactive means above about -30%;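 note: stimulus is agonist 54-4 at its EC80 concentration; % is set by controls: 0 for no effect and ±100 for the full control effect; compound concentration not given in the record; the text of the record puts the active cut at -80%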
Target sequence (Q9GZU1 whole entry, looked up): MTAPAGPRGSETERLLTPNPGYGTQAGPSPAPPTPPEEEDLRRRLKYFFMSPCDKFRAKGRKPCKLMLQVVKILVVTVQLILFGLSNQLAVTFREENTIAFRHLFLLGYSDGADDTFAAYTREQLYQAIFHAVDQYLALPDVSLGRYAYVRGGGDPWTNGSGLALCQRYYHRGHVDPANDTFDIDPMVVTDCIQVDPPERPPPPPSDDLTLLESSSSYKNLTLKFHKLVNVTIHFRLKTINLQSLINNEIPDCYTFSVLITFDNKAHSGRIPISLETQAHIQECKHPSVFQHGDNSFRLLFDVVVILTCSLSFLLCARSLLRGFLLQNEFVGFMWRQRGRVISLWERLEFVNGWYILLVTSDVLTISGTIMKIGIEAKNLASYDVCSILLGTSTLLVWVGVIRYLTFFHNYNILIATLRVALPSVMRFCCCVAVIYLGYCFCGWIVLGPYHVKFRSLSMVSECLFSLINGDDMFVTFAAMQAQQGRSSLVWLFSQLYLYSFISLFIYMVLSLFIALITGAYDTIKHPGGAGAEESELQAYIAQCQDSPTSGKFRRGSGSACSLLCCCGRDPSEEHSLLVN
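TRPML1-DL cells, Tet-induced overnight (~16 h, 37 °C) at 1,500 cells/well, were loaded with Ca8 no-wash dye plus quencher for 45-90 min at room temperature. Compounds were pinned during FDSS kinetic reading; agonist 54-4 at EC80 (4 uM final) then added.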
TRPV1 potentiator = HTS Assay for Compounds that Act as Potentiators of the Vanilloid Receptor 1. TRPV1-expressing cells, Fluo-8 calcium influx, capsaicin EC20 potentiation; host cell line not named in the record; control for the full effect not named in the record. actives 0.02% (n = 320,000). potentiation, % at 8.33 µM; active means potentiation above 80%; inconclusive means 30% to 80%; inactive means below 30%; note: 0% is about no effect
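Fluo-8 calcium influx in TRPV1-expressing cells, kinetic read (ex 480/em 520 nm). Compound added and read 3 min for agonist activity, followed by capsaicin at EC20 final and 2 min further read for enhancement.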
PINK1 expr mod = A Quantitative High throughput Screen to Identify Chemical Modulators of PINK1 Expression; PINK1 immunofluorescence, high-content cytometry, 24 h; Potency, µM (series often up to 76.6 µM), without a hit: at the highest dose activation (PINK1 increase), most hits filed as activators; actives 0.2% (n = 410,000); AID 624263, 2012; active = well fitted activation curve with a large enough effect; inconclusive = small, poorly fitted or top-dose-only effect; inactive = flat fitted curve, though single readings scatter; cell line not stated here;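 note: potency is the fitted concentration of half-maximal effect; % of control where 0% means no effect; nearly all actives have a fitted effect of over 65% in size; a mitochondrial uncoupler was the plate control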
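Stable cell line treated 24 h with compounds at 5 concentrations (CCCP controls), then fixed and immunostained for PINK1 plus nuclear and cell stains; PINK1 immunofluorescence quantified by laser-scanning microplate cytometry.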
Sfp inh = qHTS Assay for Inhibitors of Bacillus subtilis Sfp phosphopantetheinyl transferase (PPTase). actives 3.5% (n = 310,000). Biochemical Sfp PPTase activity, qHTS. Potency, µM, for the others: max response, negative = inhibition, usual class: inhibitors. 4'-phosphopantetheinyl transferase ffp (Bacillus subtilis), Q9F4F7; active = well fitted inhibition curve with a large enough effect; inconclusive = small, poorly fitted or top-dose-only effect, or another doubt; inactive = no such curve, though single readings can be large or run the other way;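 note: the enzyme is Sfp with the accession as filed and its product quenches rhodamine fluorescence; potency is the fitted concentration of half-maximal effect; 0% = enzyme reaction without inhibitor and -100% = no enzyme wells; top concentration of the series not given in the record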
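Fluorescence-quenching assay: 15 nM Sfp-PPTase preincubated 15 min at room temperature with compound, then 5 uM rhodamine-CoA and 12.5 uM BHQ-2-labelled YbbR peptide added. Fluorescence (ex 525/em 598 nm) read at start and after 30 min; difference gives rate.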
TRPML1 ag = qHTS for Agonists of the Human Mucolipin Transient Receptor Potential 1 (TRPML1). TRPML1-expressing cells, Ca2+ dye fluorescence, FDSS; host cell line not named in the record; reference of the full effect not given here. actives 0.12% (n = 410,000). activation, % (test concentration not listed). AID 624414, 2012. Mucolipin-1 (Homo sapiens), Q9GZU1; in the data active = activation above about 50%; inconclusive = about 30% to 50%; inactive = below about 30%; note: 0% is about no effect; the text of the record puts the active cut at 80%
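Calcium fluorescence on an FDSS kinetic reader gave the read-out. Tet-induced TRPML1-DL cells were plated overnight, dye-loaded (Ca8 with quencher, 45-90 min, room temperature, dark), then read 110 s after compound addition, and again 110 s after 4uM final 54-4 (EC80).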
Active calls of the source: *; ? = inconclusive; / = not tested or not shown; & = joins results of further samples; [ ] = dose if it differs, or a comment.

no.	SMILES	ClpP mod	Menin MLL FP FL	TRPML1 inh	TRPV1 potentiator
1	COC(=O)Cc1ccc(NC(=S)NCc2ccc(F)cc2)cc1	1.1%	3.6	-2.4	-27.9
2	Cc1cc(-c2csc(NC(=O)c3ccc(=O)n(C)n3)n2)c(C)n1CC1CCCO1 (stereo not given)	-0.8%	-3.4	35.1	-1.0
3	O=C(N/N=C/c1ccncc1)c1ccc(NC(=O)c2ccc(Cl)cc2)cc1	/	0.7	-4.1	-0.3
4	O=c1[nH]c(Cc2cccs2)nc2scc(-c3ccc(Cl)cc3)c12	/	3.4	10.9	-2.4
5	CC(=O)N1Cc2cc(C(=O)NCC(F)(F)F)nc(-c3cccc(-c4cccnc4)c3)c2[C@H]1CCO	-0.9%	/	/	/
6	COCCS(=O)(=O)N(Cc1ccccc1)[C@H](C(=O)OC)C(C)C	1.3%	/	1.7	/
7	CCOC(=O)c1c(C)[nH]c(C)c1C(=O)COC(=O)CCOc1ccccc1OC	-1.3%	-2.9	5.6	21.7
8	Cn1c(NC(=O)CCc2ccccc2)cc(=O)n(C)c1=O	-8.2%	-3.8	?	-25.8

no.	PINK1 expr mod	Sfp inh	TRPML1 ag
1	16.5%	7.4%	0.3
2	3.1%	50.1µM*	1.0
3	7.0%	-13.0%	-0.2
4	26.2%	8.6%	3.5
5	-0.3%	/	-0.2
6	-0.4%	/	-0.8
7	0.1%	-5.2%	-0.5
8	0.2%	5.9%	0.4

no.	SMILES	ClpP mod	Menin MLL FP FL	TRPML1 inh	TRPV1 potentiator
9	O=C(Nc1ccccc1-c1cn2c(CN3CCNCC3)csc2n1)c1cnc2ccccc2n1	-0.9%	/	/	/
10	COc1cc(/C=N/NC(=O)c2cc(-c3ccccc3OC(C)C)nc3ccccc23)ccc1O	-26.3%	1.9	29.8	?
11	CCn1c(=O)n(CC(=O)NCC2CCCO2)c(=O)c2c3c(sc21)COC(C)(C)C3 (stereo not given)	1.1%	/	?	?
12	CC[C@@H]1C=C(C(=O)O)[C@H](c2ccc(Cl)cc2)N1S(=O)(=O)c1ccc(C)cc1	0.6%	/	7.3	/
13	COc1cccc(NC(=O)c2cncs2)c1	-1.2%	-2.1	/	-15.7
14	CCc1ccc2nc3sc(C(=O)N4CCc5ccccc54)c(N)c3cc2c1	/	3.5	/	19.0
15	COC(=O)c1c(NC(=O)C2CC=CCC2C(=O)O)sc(C(N)=O)c1C (stereo not given)	-3.6%	9.3	57.9	-3.4
16	Cc1nn(C(C)CC(=O)O)c(C)c1C (stereo not given)	-3.0%	-1.0	-2.8	-4.3

no.	PINK1 expr mod	Sfp inh	TRPML1 ag
9	-1.2%	/	0.1
10	-1.1%	-6.8%	0.0
11	1.6%	6.7%	0.5
12	-0.9%	/	-0.2
13	0.6%	10.8%	/
14	/	-20.4%	/
15	0.6%	-22.9%	-0.5
16	5.8%[38.3 µM]	8.9%	0.3

no.	SMILES	ClpP mod	Menin MLL FP FL	TRPML1 inh	TRPV1 potentiator
17	O=C(Nc1cccc(Cl)c1)c1nc[nH]c1C(=O)NCCCNC(=O)c1[nH]cnc1C(=O)Nc1cccc(Cl)c1	-0.9%	/	20.6	/
18	CCOc1ccccc1CNCc1cccn1-c1nnc(N2CCN(c3ccccc3)CC2)s1	-3.5%	/	10.8	/
19	CCCN(CC(=O)Nc1ccccc1C)C(=O)COc1ccc2c(c1)CCC2	-15.0%	/	13.8	-9.9
20	Cc1[nH]c2ccccc2c1/C=N/Nc1nc(Nc2ccc(F)cc2)nc(N2CCOCC2)n1	0.7%	5.8	-6.4	-0.4
21	CCCc1c(C(=O)N/N=C(\C)c2cccnc2)nnn1-c1nonc1N	-4.2%	/	-11.3	/
22	COc1cc2ncnc(Nc3ccc4c(c3)OCO4)c2cc1OC	0.5%	2.7	13.3	-20.6
23	COC(=O)c1sc2ccccc2c1C(=O)OC	-3.0%	1.0	7.6	11.5
24	Cc1cc(C)n2c(SCC(=O)NCc3ccco3)nnc2n1	-0.9%	4.5	-13.7	-16.9

no.	PINK1 expr mod	Sfp inh	TRPML1 ag
17	-1.1%	/	-0.6
18	20.5%	/	-0.7
19	-0.6%	1.0%	1.0
20	-1.4%	21.1%	-0.8
21	11.9%	/	0.0
22	-2.0%	-7.5%	4.2
23	-1.0%[38.3 µM]	6.2%	2.5
24	-0.2%	16.1%	-0.3

no.	SMILES	ClpP mod	Menin MLL FP FL	TRPML1 inh	TRPV1 potentiator
25	CCOc1ccc(Nc2ncnc3onc(-c4ccc(Cl)cc4)c23)cc1	?	/	23.0	/
26	CC(NC(=O)COc1ccccc1)C(c1ccccc1)N1CCN(C)CC1 (stereo not given)	1.1%	-1.1	-7.4	-21.2
27	CCCn1ccc2c(OCC(=O)NCc3ccccc3Cl)cccc2c1=O	-24.6%	/	9.0	/
28	Cc1ccc(NC(=O)CN2C(=O)NC(C)(C)C2=O)cc1S(=O)(=O)N1CCCCCC1	/	/	-13.6	2.6
29	CCOc1ncccc1C(=O)OCC(=O)Nc1c(C)cccc1C	-1.0%	-1.6	-6.2	4.5
30	Cc1c(CNC2CCCCCC2)c(C(=O)O)c(C)n1Cc1ccc(F)cc1	0.0%	/	-11.5	/
31	CCn1nc(C)c(NC(=O)/C=C/c2cnn(C)c2C)c1C	0.4%	-0.8	9.6	-13.0
32	CC(=O)Nc1ccc(NC(=O)C2c3ccccc3Oc3ccccc32)cc1	/	3.6	-15.9	-4.1

no.	PINK1 expr mod	Sfp inh	TRPML1 ag
25	-0.4%	/	-0.3
26	-0.8%	1.3%	-0.4
27	1.1%	/	0.5
28	0.5%	/	-0.2
29	1.2%	19.1%	0.3
30	-0.6%	/	-0.5
31	5.5%[38.3 µM]	13.8%	3.1
32	2.2%	-10.4%	0.5

no.	SMILES	ClpP mod	Menin MLL FP FL	TRPML1 inh	TRPV1 potentiator
33	CC(C)CCNc1nc2c(c(=O)[nH]c(=O)n2C)n1CC(O)COC(C)C (stereo not given)	1.0%	7.5	7.5	0.4
34	CCS(=O)(=O)N1Cc2ccccc2CC1C(=O)Nc1nccs1 (stereo not given)	-1.8%	0.5	-11.7	14.7
35	CCOc1cc(OCC)cc(C(=O)N2CCC[C@H]2C(=O)N2CCC[C@H]2C(=O)N(C)Cc2ccccc2)c1	0.6%	/	/	/
36	CCCc1nc2nc(C)c(NS(=O)(=O)c3ccc(C)c(C)c3)c(=O)n2[nH]1	-0.4%&-0.2%	/	4.9&23.9	/
37	COc1ccc(CCNC(=O)C(=O)NCC2OCCN2S(=O)(=O)c2ccc(F)cc2)cc1OC (stereo not given)	0.7%	5.6	5.0	-4.8
38	C=CCNc1nnc(Cl)c2ccccc12	-23.2%	-0.2	12.1	1.5
39	Cc1ccc(Oc2ccccc2/C=C/C(=O)O)cc1	-1.6%	-8.6	33.4	-6.8
40	Cc1ccc(-c2nc(C3CCN(S(=O)(=O)c4ccc(C(C)(C)C)cc4)CC3)no2)cc1	-1.1%	3.8	42.4	-2.8

no.	PINK1 expr mod	Sfp inh	TRPML1 ag
33	-1.6%	10.2%	0.6
34	0.9%	9.1%	0.8
35	1.4%	/	-0.6
36	0.5%&1.5%	/	0.3&4.4
37	-0.2%	2.5%	-0.3
38	-3.8%[38.3 µM]	14.2%	0.2
39	-2.6%	14.9%	0.4
40	0.0%	25.4%	-0.4

no.	SMILES	ClpP mod	Menin MLL FP FL	TRPML1 inh	TRPV1 potentiator
41	N#C/C(=C\c1cccnc1)c1nc2ccccc2[nH]1	0.3%	?	20.4	/
42	Cc1ccc(CNS(=O)(=O)c2cc(Br)cc3c2N(C(=O)C2CC2)CC3)cc1	-0.6%	/	25.0	/
43	CCN(CC)CCn1c(=S)[nH]c2cc(Cl)ccc2c1=O	-5.6%	0.6	-0.4	-8.2
44	CCOC(=O)CSc1nc2cc(C(=O)N3CCC(C(N)=O)CC3)ccc2c(=O)n1C1CCCCC1	/	4.7	6.5	-3.4
45	O=C(O)/C=C\C(=O)Nc1cc(O)ccc1[N+](=O)[O-]	-0.2%	0.4	/	-13.4
46	CCNC(=S)N1CCC(c2nc3ccccc3s2)CC1	-0.7%	1.0	9.2	6.5
47	O=C(Nc1cccc(S(=O)(=O)N2CCCCCC2)c1)C1CCC1	-3.2%	/	11.1	-9.0
48	CN(C)c1ccc(C(c2ccc(N(C)C)cc2)c2ccc([N+](=O)[O-])cc2)cc1	/	4.6	-16.4	8.1

no.	PINK1 expr mod	Sfp inh	TRPML1 ag
41	6.6%	-12.4%	0.5
42	3.6%	/	-0.7
43	?	-9.2%	0.5
44	1.9%	-12.2%	-1.1
45	-0.5%	0.0%	/
46	1.4%[38.3 µM]	1.8%	-0.2
47	0.0%	/	-0.3
48	2.7%	9.9%	-0.3

Sfp inh: entries above that show a hit
No.	Structure	Menin MLL FP FL	TRPML1 inh	PINK1 expr mod	Sfp inh
2	Cc1cc(-c2csc(NC(=O)c3ccc(=O)n(C)n3)n2)c(C)n1CC1CCCO1 (stereo not given)	-3.4	35.1	3.1%	50.1µM*

Given tab-delimited: entries from further up.
no.	structure	ClpP mod	Menin MLL FP FL	TRPML1 inh	TRPV1 potentiator	PINK1 expr mod	Sfp inh	TRPML1 ag
12	CC[C@@H]1C=C(C(=O)O)[C@H](c2ccc(Cl)cc2)N1S(=O)(=O)c1ccc(C)cc1	0.6%	/	7.3	/	-0.9%	/	-0.2
47	O=C(Nc1cccc(S(=O)(=O)N2CCCCCC2)c1)C1CCC1	-3.2%	/	11.1	-9.0	0.0%	/	-0.3

Rows are unselected; about 4.4% have a hit in one of these screens.
